Source: PubChem (National Center for Advancing Translational Sciences (NCATS))
Resorufin autofl = compounds fluorescent in resorufin spectral region; max dye-equivalent concentration, M; Compound fluorescence, resorufin region 547/598 nm, buffer; stronger effect = higher value; actives 0.04% (n = 59,000); active = above 10 nM dye equivalent; inconclusive = 1 to 10 nM; inactive = 1 nM or less; a few of its hits are not listed in these tables; note: highest value over a series up to 38 µM
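Compounds in 100 mM Tris buffer, pH 8.0, incubated 15 min at room temperature, then read with 547 nm excitation and 598 nm emission filters. Fluorescence was converted to dye-equivalent concentration using an on-plate six-point resorufin standard curve.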
A488 fluor = A488 region autofluorescence. compound autofluorescence, A488 spectral region, dye equivalency; stronger effect = higher value. max dye equivalency, M. actives 0.1% (n = 59,000); active = above 10 nM dye equivalent; inconclusive = 1 to 10 nM; inactive = 1 nM or less; about half of its hits are not listed in these tables;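 note: highest value over a series up to 38 µM; compound alone in buffer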
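Autofluorescence read at ex 480/em 540 nm after 15 min RT in 100 mM Tris pH 8.0; compound signal normalized to A488 standard series on each plate, reported as dye-equivalent concentration at each test concentration.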
TSHR agonist = activates the human thyroid stimulating hormone receptor; P16473; HEK293-CNG-TSHR cells (CNG channel as cAMP sensor), membrane potential dye, cAMP; Potency, µM (doses to about 57.1 µM), inactives show at the highest dose activation, hits mostly activators; actives 0.48% (n = 73,000); active = well fitted activation curve of enough size with the parental cells flat; inconclusive = any curve in the parental cells; inactive = parental cells flat and receptor cells flat or falling; note: potency is the fitted concentration of half-maximal effect; % of control where 0% means no effect; weak receptor curves with flat parental cells got no call and are not listed
Target sequence (P16473 whole entry, looked up): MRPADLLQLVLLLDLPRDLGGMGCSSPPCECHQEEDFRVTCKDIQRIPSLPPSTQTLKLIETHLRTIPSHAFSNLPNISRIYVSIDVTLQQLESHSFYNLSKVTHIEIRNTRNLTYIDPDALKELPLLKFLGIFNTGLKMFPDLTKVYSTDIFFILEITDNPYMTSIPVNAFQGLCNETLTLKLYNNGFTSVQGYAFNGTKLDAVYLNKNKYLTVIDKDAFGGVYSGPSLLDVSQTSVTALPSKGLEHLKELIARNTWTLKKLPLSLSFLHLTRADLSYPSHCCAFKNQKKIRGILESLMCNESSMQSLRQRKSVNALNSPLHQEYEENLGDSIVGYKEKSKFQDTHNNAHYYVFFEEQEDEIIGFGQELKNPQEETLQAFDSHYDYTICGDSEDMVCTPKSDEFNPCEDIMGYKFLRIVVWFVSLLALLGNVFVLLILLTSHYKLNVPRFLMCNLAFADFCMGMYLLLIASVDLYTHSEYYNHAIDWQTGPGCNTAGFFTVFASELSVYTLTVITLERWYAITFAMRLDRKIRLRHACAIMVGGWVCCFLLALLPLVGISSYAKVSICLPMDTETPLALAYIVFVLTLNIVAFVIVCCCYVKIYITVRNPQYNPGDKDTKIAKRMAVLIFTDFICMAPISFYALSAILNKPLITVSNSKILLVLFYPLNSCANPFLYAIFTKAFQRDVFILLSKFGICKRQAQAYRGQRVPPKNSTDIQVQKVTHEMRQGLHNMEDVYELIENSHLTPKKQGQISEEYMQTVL
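HEK 293 cells stably expressing TSHR and a cAMP-gated CNG channel; parental CNG-only cells as counterscreen. Cells preloaded 60 min with membrane potential dye plus 100 uM RO 20-1724, then compound 30 min; fluorescence read at 590 nm.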
AID923 = qHTS Assay for Allosteric/Competitive Inhibitors of Caspase-1: Spectroscopic Profiling in AFC Spectral Region; AID 923, 2007; actives 1.1% (n = 75,000); compound fluorescence, AFC spectral region (405/520 nm); almost no hit is shown here; Potency, µM (titrated, usually from 57.5 µM), for inactives: top-dose fluorescence increase, most hits filed as activators; active = well fitted activation curve with a large enough effect; inconclusive = small, poorly fitted or top-dose-only effect;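 note: potency is the fitted concentration of half-maximal effect; 0% is about no effect; scaled to a free AFC standard on each plate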
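Titrations up to 57 uM read every 20 sec for 3 min (405/520 nm) with 50 nM caspase 1 and 5 uM Ac-WEHD-AFC, pH 7.5 HEPES buffer. Fluorescence-vs-time intercept gave baseline, scaled against on-plate AFC standard.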
A647 fluor = A647 region autofluorescence; AID 592; 59,000 tested, under 10 active; max dye-equivalent concentration, M; Compound fluorescence, A647 channel (570/671 nm), Tris buffer; active means above 1 µM dye equivalent; inconclusive means 0.1 to 1 µM; inactive means 0.1 µM or less;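 note: values scaled relative to a standard on each plate; highest value over a series up to 38 µM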
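Compound fluorescence was measured in 100 mM Tris buffer, pH 8.0, after 15 min at room temperature, using 570 nm excitation and 671 nm emission filters. Signal was normalized to a per-plate Alexa 647 standard curve and expressed as dye-equivalent concentration at each compound concentration.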
The depositor's hits bear a star; i = inactive; ? = inconclusive; . = no result given; & = joins results of further samples; [ ] = dose if it differs, or a comment. A portion of the library; rates above refer to the full screens.

Fields – Resorufin autofl, AID923, A647 fluor, A488 fluor, TSHR agonist
- COC(=O)c1cc(C(=O)OC)n(Cc2ccc(F)cc2)n1
→ i, -2.5%, 7.2e-09, i, 5.9%
- Cc1nn2c(N)csc2nc1=O
→ i, 16.0%, 1e-09, i, ?
- COCCn1c(=O)c(-c2cccc(C#N)c2)nc2cnc(OC)nc21
→ i, 1.9%, 8.5e-09, i, -3.2%
- Cc1[nH]nc2c1-c1nc3ccccc3nc1C(C)(C)C2
→ i, -0.7%, 1e-09, i, 10.2%
- CO[C@]1(NC(=O)C2SC(=C(C(N)=O)C(=O)O)S2)C(=O)N2C(C(=O)O)=C(CSc3nnnn3C)CS[C@H]21 (stereo not given in full)
→ i, -1.9%[25.7 µM], 6e-09, i, -22.7%[25.6 µM]
- CCOC(=O)Nc1c(C(=O)OC)[nH]c2cccc(OC)c12
→ i, 0.2%, 5.6e-09, i, 9.5%
- O=C(Nc1ccc(F)cc1)N1CCn2c(nc3ccccc32)C1
→ i, 0.2%, 1e-09, i, -13.9%
- O=C(NC1CCS(=O)(=O)C1)C1CCCCN1S(=O)(=O)c1ccc(Cl)cc1 (stereo not given)
→ i, 1.6%, 5.6e-09, i, 11.2%[11.4 µM]
- Cc1cc(Nc2ccccc2F)n2nc(C)nc2n1
→ ., -0.7%, ., ., 4.9%
- COc1cccc(C2C(C)CCC3C(=O)N(C)C(C(C)C)C(=O)N32)c1 (stereo not given)
→ ., 2.4%[11.5 µM], ., ., 6.1%[11.4 µM]
- COc1ccc(NC(=O)Cc2nc3ccccc3[nH]2)cc1
→ ., -1.3%, ., ., 18.9%
- CCCOC(=O)c1ccc(Nc2cc(C)nc3ncnn23)cc1
→ i, -1.2%, 3.26e-08, i, 1.0%
- Cc1ccc(-c2nc(CS(=O)CC(=O)NCc3ccccn3)c(C)o2)cc1 (stereo not given)
→ ., 1.5%, ., ., -0.9%
- Cc1c(C(=O)NCc2ccccn2)oc2ccccc12
→ i, 0.2%, 1e-09, i, 9.3%
- Cc1cc(NC(=O)c2cccc(S(=O)(=O)N3CCCCCC3)c2)n(-c2ccccn2)n1
→ i, -0.3%, 2.14e-08, i, .
- Cc1nc2ccccc2c2c1C(=O)N(CCC1=CCCCC1)C2=O
→ i, 0.1%, 1e-09, i, ?
- COCCn1c(C)cc(C(=O)COc2nc3ccccc3nc2C)c1C
→ i, -0.6%, 3.78e-08, i, 14.4%
- Cc1ccc(S(=O)(=O)N(CC(=O)N2CCOCC2)CC(=O)N2CCOCC2)cc1
→ i, -1.2%, 1e-09, i, 4.9%
- CC1CN(S(=O)(=O)c2ccc(NC(=O)c3ccco3)cc2)CC(C)O1 (stereo not given)
→ i, -1.8%, 2.55e-08, i, -1.9%
- O=c1c2ccccc2nc(SCc2nnc(-c3ccccc3)o2)n1-c1ccccc1
→ ., 1.7%, ., ., ?
- CNC(=O)CSc1nnnn1-c1ccc(C)cc1C
→ i, 0.9%, 4.21e-08, i, -1.4%
- COC(=O)C1=C(C)N(C)C(=O)NC1c1ccc(O)c(OC)c1 (stereo not given)
→ ., 0.9%, ., ., 11.0%
- CCOC(=O)c1cnc2sccn2c1=O
→ i, -2.0%, 1.91e-08, i, -1.1%
- CC(C)=CCC/C(C)=C/CO/N=C1/C[C@@H](O)[C@@H](O)[C@@H]2[C@@H]3C(=O)N(C[C@@H]4CCCO4)C(=O)[C@H]3CC[C@H]12
→ ., -0.7%[11.5 µM], ., ., -11.0%[11.4 µM]
- N#Cc1ccccc1CSc1ccccn1
→ i, 1.5%, 4.6e-09, i, 14.0%
- O=C1C[C@@H](O)[C@@H](O)[C@H]2[C@@H]3C(=O)N(Cc4ccccc4)C(=O)[C@@H]3CC[C@H]12
→ ., 1.1%&-0.1%[11.5 µM], ., ., ?
- CC1CCN(C(=O)N[C@@H](Cc2ccccc2)C(=O)O)CC1
→ i, -0.3%, 2.41e-08, i, 4.3%
- CCC(C)(C)n1nnnc1C(C(C)C)N(CCCO)Cc1cc2cc(C)ccc2[nH]c1=O (stereo not given)
→ i, 7.2%, 2.1e-09, i, ?
- C=CCN=C(NC#N)SCC(=O)NCc1ccccc1
→ i, -0.8%, 4.1e-09, i, 2.7%
- CCCn1c(NC(=O)c2cccc(S(=O)(=O)N3CCCC3)c2)nc2ccccc21
→ i, 0.7%, 4.8e-09, i, ?
- O=C(CSc1nnc(NC(=O)C2CC2)s1)Nc1ccc(F)cc1
→ i, 0.2%, 1.04e-08, i, -2.4%
- C=CCn1c(COc2ccc(Cl)cc2)nnc1SCc1ccc(C#N)cc1
→ i, 6.7%, 1.32e-08, i, ?
- COc1ccc(C2=NOC(C(=O)NCc3ccccc3)C2)cc1 (stereo not given)
→ i, -1.0%, 2.4e-09, i, ?
- COCCCNC(=O)C(F)(F)C(F)(F)C(=O)NCCCOC
→ ., -1.9%, ., ., 22.7%[11.4 µM]
- CCOC(=O)CNC(=O)C1c2cc(OC)c(OC)cc2C(=O)N(C)C1c1ccccc1F (stereo not given)
→ i, -1.5%, 1.59e-08, i, 1.7%[11.4 µM]
- CCC(=O)c1cn(CC(=O)NCc2cccnc2)c2ccccc12
→ i, 0.4%, 1e-09, i, -2.9%
- Cc1cc(NC(=O)c2cc(-c3ccncc3)nc3c(C)cccc23)no1
→ i, -0.2%, 1e-09, i, ?
- O=C(Nc1ccccc1)N1CC2(CCN(C(=O)c3ccncc3)CC2)C1
→ i, -1.8%, 1.88e-08, i, 2.0%
- O=C(CSc1nc2ccncc2[nH]1)Nc1ccccc1C(F)(F)F
→ i, -0.5%, 1.7e-09, i, 4.3%
- Cn1c(=O)n(C)c2cc(NC(=O)C(F)(F)F)ccc21
→ i, 8.0%, 1e-09, i, -1.1%
- CN(C)c1ccc(-c2nn3c(-c4ccc(Cl)cc4)nnc3s2)cc1
→ i, ., 4.76e-08, i, .
- Cc1ccc(C)c(OCC(O)CN2CCC(C)CC2)c1C (stereo not given)
→ i, -1.6%, 2.8e-09, i, 10.8%
- NC(=O)C1(N2CCCCC2)CCN(C(=O)c2cccs2)CC1
→ ., 2.2%, ., ., -0.7%
- CCSc1nc(-c2ccc(OC)cc2)ccc1C#N
→ i, 5.0%, 6.1e-09, i, ?
- COc1ccccc1CCNC(=O)C1CCCO1 (stereo not given)
→ i, 1.0%, 5.1e-09, i, -5.1%
- CCn1c(COc2cccc(OC)c2)nnc1SCC(=O)N1CCOCC1
→ i, -0.4%, 1e-09, i, 3.9%
- Cc1nnc(NC(=O)c2ccc3ccccc3c2)o1
→ i, 0.1%, 1.22e-08, i, 10.7%
- O=C(C1=C(O)C(=O)N(CCCN2CCOCC2)C1c1ccccn1)c1cccs1 (stereo not given)
→ i, ., 1e-09, i, .
- Cc1ccc(S(=O)(=O)N2CCCC2C(=O)OCc2nc3ccccc3s2)cc1 (stereo not given)
→ i, 0.3%, 1e-09, i, 8.1%
- Cc1ccc(C(=O)CS(C)(=O)=O)cc1
→ i, 0.3%, 4e-08, i, -4.3%
- COc1ccc(-c2nc(SC)n(C)c(=O)c2C#N)cc1OC
→ i, 11.1%, 1e-09, i, 11.2%
- O=C1Cn2c(nc3ccccc32)N1c1ccccc1F
→ i, 0.5%, 6.6e-09, i, 0.1%
- COc1ccccc1OCCn1cc(C(=O)c2ccco2)c2ccccc21
→ i, 2.6%, 4.4e-09, i, ?
- COC(=O)CCC(=O)Nc1sc2c(c1C#N)CCCC2
→ i, -0.2%, 2.39e-08, i, -1.0%
- CC(C)(C)C1CCc2onc(C(=O)Nc3cccnc3)c2C1 (stereo not given)
→ i, -1.8%, 1.45e-08, i, 15.0%
- N#Cc1nc(-c2ccco2)oc1N1CCN(c2ccccc2)CC1
→ i, -0.3%, 2.7e-09, i, ?
- Cn1c(=O)oc2cc(S(=O)(=O)N3CCN(Cc4ccc5c(c4)OCO5)CC3)ccc21
→ i, -0.6%, 2.79e-08, i, 2.7%
- COC(=O)C1=C(C)OC(N)=C(C#N)C1c1ccccc1F (stereo not given)
→ ., -0.4%, ., ., ?
- CC(C)(C)c1cc(-c2ccco2)c(C#N)c(SCC#N)n1
→ i, ., 3.4e-09, i, .
- CCCC1(C(=O)O)NC(c2cccc(OC)c2O)C2C(=O)N(c3ccccc3)C(=O)C21 (stereo not given)
→ ., 6.2%, ., ., 1.1%

Limited to TSHR agonist, A647 fluor and Resorufin autofl, for 3 of the compounds above:
Compound	TSHR agonist	A647 fluor	Resorufin autofl
COC(=O)C1=C(C)OC(N)=C(C#N)C1c1ccccc1F (stereo not given)	?	.	.
Cc1ccc(S(=O)(=O)N2CCCC2C(=O)OCc2nc3ccccc3s2)cc1 (stereo not given)	8.1%	1e-09	i
Cc1nnc(NC(=O)c2ccc3ccccc3c2)o1	10.7%	1.22e-08	i

Next section.
Fields – Resorufin autofl, AID923, A647 fluor, A488 fluor, TSHR agonist
- CC1CCN(c2nc(-c3ccncc3)nc3ccccc23)CC1
→ ., 4.9%, ., ., ?
- O=C(CNCC1CCCO1)Nc1ccccc1-n1cccc1 (stereo not given)
→ i, -0.1%, 6.1e-09, i, .
- CCc1ccc2c(c1)[C@]1(C(=O)N2)[C@@H]2C(=O)N(Cc3ccccc3)C(=O)[C@@H]2[C@@H]2CCCN21
→ i, -1.7%, 1e-09, i, 4.1%
- Cc1cc(=O)c2ccccc2[nH]1
→ i, 0.6%, 1.69e-08, i, 3.6%
- COc1cc(N=c2ssnc2Cl)cc(OC)c1OC
→ i, -2.0%, 4.8e-09, i, -0.8%
- COCCNCC(=O)NC12CC3CC(CC(C3)C1)C2
→ i, -0.4%, 1.02e-08, i, 9.9%
- CCn1c(=O)c(=O)n(CC)c2cc(S(=O)(=O)Nc3cccc(OC)c3)ccc21
→ i, -0.5%, 4.34e-08, i, ?
- Cc1ccc(C(=O)CCNc2ccc(Br)cc2)o1
→ i, -1.8%, 1e-09, i, 0.5%
- COCCNc1ncnc2ccc(-c3ccc(N(C)C)cc3)cc12
→ i, 2.7%, 1.97e-08, i, -0.7%
- Cc1cc(C)c(S(=O)(=O)Nc2cccc3nsnc23)c(C)c1
→ i, 6.1%, 2.97e-08, i, ?
- Cc1cc(C)n(-c2ccc(C(=O)Nc3ccccc3N3CCOCC3)cc2)n1
→ i, -1.7%, 1e-09, i, ?
- CC1CCN(CC(=O)Nc2sc3c(c2C#N)CCC3)CC1
→ i, 0.1%, 2.69e-08, i, ?
- COc1ccc(Cn2c(=O)c3c(nc(NCCO)n3C)n(C)c2=O)cc1
→ i, ., 1e-09, i, .
- Nn1c(SC/C=C/c2ccccc2)nnc1-c1ccccn1
→ i, -1.9%, 2.87e-08, i, 7.3%[11.4 µM]
- O=C1OC(Nc2ccc(Br)cc2F)c2ccccc21 (stereo not given)
→ i, ., 1.51e-08, i, .
- O=c1c2ccccc2nc(CSc2nnnn2-c2ccccc2)n1-c1ccccc1
→ ., -1.1%, ., ., -7.5%
- C/C=C(\C)CN1CCN(c2cc(C)ccc2C)CC1
→ ., -0.5%, ., ., ?
- Cn1c(=O)c2c(nc(NCc3ccc4c(c3)OCO4)n2Cc2ccccc2)n(C)c1=O
→ i, ., 9.99e-08, i, .
- CCOC(=O)C1CCCN(CC(=O)Nc2c(F)c(F)c(F)c(F)c2F)C1 (stereo not given)
→ i, 1.1%, 5.1e-09, i, 2.9%
- COc1ccc(C2CC(C(F)(F)F)n3ncc(C(=O)NCC4CCCO4)c3N2)cc1OC (stereo not given)
→ i, ., 5.71e-08, i, .
- CCCCn1c(CCCNC(=O)CC)nc2ccccc21
→ ., 0.3%, ., ., 1.9%
- CCOC(=O)N1CCC(NC(=O)Cc2ccc(-n3c(=O)[nH]c4ccccc4c3=O)cc2)CC1
→ i, 1.5%, 5.2e-09, i, 3.8%
- COC(=O)c1cccc(NC(=O)CN(c2ccc3c(c2)OCO3)S(C)(=O)=O)c1C
→ i, 0.5%, 2.17e-08, i, 0.5%
- CC(C)n1c(SCC(=O)N2CCCc3ccccc32)nc2c1c(=O)n(C)c(=O)n2C
→ i, 1.7%, 1.94e-08, i, 2.4%
